Screening data from PubChem BioAssay.
Rango dissoc inh: qHTS Assay for Inhibitors of RanGTP induced Rango (Ran-regulated importin-beta cargo) - Importin beta complex dissociation; Snurportin-1 (Homo sapiens) + GTP-binding nuclear protein Ran (Homo sapiens) + Importin …; Biochemical FRET Rango-importin beta, RanGTP-induced dissociation; Potency, µM (series often up to 46.1 µM), inactives show at the highest dose activity change, negative = inhibition; 340,000 compounds, 0.071% hits; active means falling FRET ratio curve, often poorly fitted, with flat reads before Ran was added; inconclusive means other falling curves, or compound fluorescence or quenching; inactive means flat or rising ratio curve;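 further: potency means the concentration at half of the fitted maximal effect; % of control where 0% means no effect; nearly all actives have a fitted effect of over 45% in size; -100% = wells without RanGTP and RCC1; the record marks most hits as doubtful in a second field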
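Recombinant Rango FRET biosensor (EYFP–snurportin 1 IBB–cerulean CFP10) at 0.1 uM premixed with 0.25 uM importin beta in PBS, 1 mM DTT, 0.02% Tween-20, 0.1% BSA. Compound added 5 min; RanGTP-RCC1 (0.6 uM Ran, 2 mM GTP, 0.2 uM RCC1) then triggers release, read at 45 min.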
GLA inh pH 4.5: qHTS Assay for Inhibitors of Human alpha-Galactosidase at pH 4.5; 230,000 tested, under 10 active; Alpha-galactosidase A (Homo sapiens), P06280; purified enzyme, 4-MU-alpha-Gal fluorescence, pH 4.5; activity change, negative = inhibition, % at 105 µM; AID 1467, 2008; inconclusive = small, poorly fitted or top-dose-only inhibition, or a rising curve; inactive = flat fitted curve, though single readings scatter; no compound was filed as active;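 further: 0% = full activity with enzyme and -100% = basal without enzyme; dose as in the result columns while the protocol names 77 µM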
Target sequence (P06280 whole entry, looked up): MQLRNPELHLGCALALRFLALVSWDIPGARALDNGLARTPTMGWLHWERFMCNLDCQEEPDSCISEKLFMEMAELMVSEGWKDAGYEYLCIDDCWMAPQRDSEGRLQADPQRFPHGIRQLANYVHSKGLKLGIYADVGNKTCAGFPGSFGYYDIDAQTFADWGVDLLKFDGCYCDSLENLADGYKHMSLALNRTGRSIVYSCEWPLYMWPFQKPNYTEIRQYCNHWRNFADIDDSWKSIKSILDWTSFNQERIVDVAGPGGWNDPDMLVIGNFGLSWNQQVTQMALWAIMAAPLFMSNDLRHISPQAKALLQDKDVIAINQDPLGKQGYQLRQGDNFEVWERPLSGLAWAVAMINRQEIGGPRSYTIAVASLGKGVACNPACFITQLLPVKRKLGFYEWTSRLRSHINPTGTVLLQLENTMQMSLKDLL
miR-21 FLuc: qHTS Assay for Modulators of miRNAs and/orActivators of miR-21; HeLa miR-21 FLuc reporter, luciferase, 48 h; Potency, µM (highest dose often 38.3 µM), for the others: at the highest dose reporter change, positive = more light; 340,000 tested, under 10 active; active = well fitted rising curve with a large enough effect; inconclusive = small, poorly fitted or top-dose-only effect; inactive = no such curve, though single readings can be large or run the other way;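 further: % of control where 0% means no effect; miR-21 action dims this reporter so a rising signal means less miR-21 action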
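HeLa cells stably expressing CMV-driven firefly luciferase with a downstream miR-21 binding sequence, endogenously expressing miR-21, were treated with titrations (up to about 40uM final) for 48 hours at 37 degree Celsius. Luciferase luminescence was read after lysis.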
Rango-impB inh: qHTS Assay for Inhibitors of Rango (Ran-regulated importin-beta cargo) - Importin beta complex formation; 340,000 compounds, 0.031% hits; Rango CFP/YFP FRET sensor + importin beta, 45 min; Importin subunit beta-1 (Homo sapiens), Q14974; Potency, µM (doses to about 92.2 µM), for the others: at the highest dose inhibition of complex formation; active = rising FRET ratio curve, often small or poorly fitted; inconclusive = mostly compound fluorescence or quenching in the first reads; inactive = flat curves in all reads;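 further: potency means the concentration at half of the fitted maximal effect; 0% = DMSO wells and 100% = buffer wells lacking importin beta; nearly all actives have a fitted effect of over 15% in size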
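FRET biosensor Rango (snurportin 1 IBB between N-terminal EYFP and C-terminal Cerulean), 50 nM in PBS/1 mM DTT/0.02% Tween-20/0.1% BSA, preincubated 5 min RT with compound; 0.125 microM importin beta added, 45 min RT, CFP/YFP FRET ratio read.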
Numbers without * were called inactive; ? = inconclusive; . = no result given. The list is partial, so the mix of outcomes need not match the whole.

Start of the data: the first four entries, ahead of the listing:
SMILES	Rango dissoc inh	GLA inh pH 4.5	miR-21 FLuc	Rango-impB inh
CC1CCN(CCCn2c(=S)[nH]c3c(sc4ccc([N+](=O)[O-])cc43)c2=O)CC1	-9.2%	-4.5	-11.2%	-0.6%
O=C(COC(=O)c1cnccn1)Nc1ccc(Cl)cn1	-12.6%	.	.	0.9%
CCOc1ccc(CCNC(=O)COC(=O)c2ccncc2)cc1OCC	34.4%	.	.	3.2%
O=C(Oc1ccc(-c2nnco2)cc1)c1ccc(F)c(S(=O)(=O)N2CCOCC2)c1	-1.8%	.	.	3.0%

This part in full (from the top)
SMILES	Rango dissoc inh	GLA inh pH 4.5	miR-21 FLuc	Rango-impB inh
CC1CCN(CCCn2c(=S)[nH]c3c(sc4ccc([N+](=O)[O-])cc43)c2=O)CC1	-9.2%	-4.5	-11.2%	-0.6%
O=C(COC(=O)c1cnccn1)Nc1ccc(Cl)cn1	-12.6%	.	.	0.9%
CCOc1ccc(CCNC(=O)COC(=O)c2ccncc2)cc1OCC	34.4%	.	.	3.2%
O=C(Oc1ccc(-c2nnco2)cc1)c1ccc(F)c(S(=O)(=O)N2CCOCC2)c1	-1.8%	.	.	3.0%
O=C(Nc1nnc(-c2cccs2)s1)c1cccc(F)c1	-0.7%	-2.9	-32.1%	-4.2%
Cn1c(=O)cc(N2CCN(C(=O)c3ccco3)CC2)[nH]c1=O	1.0%	1.3	2.3%	-2.1%
Cc1ccc2nc(-c3cccc(Br)c3)cc(C(=O)NCC3CCCO3)c2c1 (centres undefined)	7.1%	.	-0.3%	-2.7%
Cc1ccc(-c2nnc(NCc3ccccc3)c3ccccc23)cc1	16.8%	14.1	-1.1%	?
CCN(CC)S(=O)(=O)c1ccc(Cl)c(C(=O)Nc2cccnc2)c1	0.7%	.	4.0%	0.8%
COc1nc(NCCO)nc(Nc2ccccc2F)n1	12.7%	3.5	-56.4%	0.1%
COc1cccc(N2CCN(CC(=O)NCc3cccs3)CC2)c1	3.5%	-8.2	-0.6%	0.2%
CCc1nn(CC(=O)N2CCN(CC)CC2)c(=O)c2cccn12	13.4%	.	-0.7%	2.0%
COc1ccc(OC)c(C(=O)CCCC(=O)c2cc(OC)ccc2OC)c1	1.9%	.	-14.2%	1.9%
O=C1N[C@H]2CC=C[C@H]2N(Cc2cccs2)c2ccccc21	0.8%	.	.	-1.1%
O=C(CN1CCN(C(=O)c2cccc(-n3cnnn3)c2)CC1)Nc1ccccc1Cl	-12.4%	.	.	-1.2%
CCOC(=O)c1c(CC(C)C)csc1NC(=O)C(C)C	3.9%	-3.0	-2.4%	-0.4%
CC(C)Cc1ccc(C(C)C(=O)Nc2cccnc2)cc1 (centres undefined)	4.2%	.	21.7%	-1.0%
Nc1ccc(-c2nc3ccc([N+](=O)[O-])cc3[nH]2)cc1	-5.4%	-4.5	-28.8%	5.4%
CCOc1ccc2c(c1)nc(NCCCO)n2Cc1ccccc1	2.1%	1.9	-15.1%	1.5%
Cc1ccc(S(=O)(=O)N2CCN(c3ccnc4cc(Cl)ccc34)CC2)cc1	-1.0%	-5.8	16.4%	-3.6%
COC(=O)c1c(C)oc2cc(Br)c(OCC(=O)C(C)(C)C)cc12	2.2%	-1.9	0.8%	5.0%
Cn1c2c(c3ccccc31)CCSC2=O	7.1%	3.4	-16.1%	8.1%
O=C(NCc1ccccc1)C1=C[C@@H](c2coc3ccccc3c2=O)C[C@@H](OCc2ccc(CO)cc2)O1	-8.4%	-3.6	8.6%	3.0%
COCCn1c(C)cc(C(=O)CSc2nnc(C3CC3)n2C2CC2)c1C	-15.5%	.	.	1.5%
Cc1ccc(S(=O)(=O)N(C)CC(=O)Nc2ccccc2N2CCCC2)cc1	-11.3%	.	.	-0.2%
Cc1ccc(/C=N/N(C)C2=NS(=O)(=O)c3ccccc32)o1	.	-1.1	-5.2%	.
CN(C(=O)c1ccc(NC(=O)Cc2cccc(NC(=O)C3CCN(C(=O)C4CC4)CC3)c2)cc1)C1CCCC1	0.2%	.	.	-1.7%
CCOC(=O)C1=CN(CC)S(=O)(=O)NC1CCc1ccccc1 (centres undefined)	5.1%	.	.	0.2%
Cc1ccc(NC(=O)CSc2nnc(C)c(=O)n2N)c(C)c1	-9.8%	1.2	-1.1%	2.0%
O=C(CN1C(=O)c2ccccc2C1=O)N1CCCCC1	9.9%	-4.6	-4.1%	-1.2%
CCOc1ccc(CCNC(=O)Cc2nn[nH]n2)cc1OCC	1.7%	-13.2	-2.8%	6.9%
CC1CCCC(C)N1C(=O)COC(=O)c1cc(F)c(F)cc1Cl (centres undefined)	-7.2%	.	.	-2.6%
O=C1/C(=N\O)Cc2ccccc21	8.3%	-3.9	-4.7%	5.3%
CC(C)(C)c1ccc2c(c1)OC(C(=O)N/N=C\c1ccncc1)CO2 (centres undefined)	8.8%	-6.9	5.5%	-1.3%
Cc1c(/C=N/Nc2ccc(F)cc2)c(O)n(C)c(=O)c1C#N	-16.4%	-19.8	-6.0%	?
CC1CCN(S(=O)(=O)N2CCC(C(=O)N3CCC(N(C)CC4CCCO4)CC3)CC2)CC1 (centres undefined)	4.8%	-1.2	-0.6%	0.8%
Cc1ccc(-n2nc3c(c2NC(=O)c2ccccc2)CS(=O)(=O)C3)cc1C	-11.9%	.	-9.3%	-3.4%
CC(=O)Nc1ccc(NC(=O)c2cc(=O)c3cc(C)c(C)cc3o2)cc1	-4.8%	.	-9.8%	0.4%
N#Cc1c(-c2ccco2)nc(SCC(=O)Nc2cccc(Cl)c2)[nH]c1=O	-18.9%	-6.4	1.2%	-2.8%
COc1ccc(C(Sc2ccccc2)c2ccccc2)cc1OC (centres undefined)	15.5%	.	.	-2.2%
NC(=O)CC(NC(=O)Cc1ccc(Br)cc1)c1ccc(NCCc2cccc(F)c2)c([N+](=O)[O-])c1 (centres undefined)	10.0%	3.3	-0.4%	-0.2%
O=c1oc(/C=C/c2ccc([N+](=O)[O-])s2)nc2ccccc12	9.2µM*	.	20.2%	?
N#Cc1c(-c2ccccc2)[nH]c(=O)[nH]c1=O	-4.8%	-4.3	-0.6%	-0.4%
COc1ccc(-c2cc(C(=O)OCC(=O)c3ccc(C)c([N+](=O)[O-])c3)c3ccccc3n2)cc1	21.3%	7.7	1.8%	0.0%
N#Cc1cc(-c2ccccc2)nn1-c1ccccc1	-5.1%	3.9	-19.6%	0.7%
Cc1cccc(C)c1NC(=O)C(C)N1CCCC1 (centres undefined)	-9.9%	.	-2.7%	4.4%
O=S(=O)(/N=C(/c1ccc(Cl)cc1)N1CCOCC1)c1ccc(Cl)cc1	7.4%	-14.5	3.9%	0.1%
COc1ccc(CNc2ccc(C)c(C)c2)cc1	6.8%	5.4	-47.2%	3.7%
CN(C(=O)CSc1nnnn1C)C1(C#N)CCCCC1	9.8%	.	.	5.7%
CCOC(=O)N=Nc1c2ccccc2c2nc3no[nH]c3nc12	-0.7%	-2.1	?	3.9%
Cc1cc(OC(C)C(N)=O)nc(-c2ccccc2)n1 (centres undefined)	-8.0%	-19.7	-0.3%	-0.6%
CCOC(=O)C1=C(N)OC(C)=C(C#N)C1c1ccco1 (centres undefined)	-17.9%	0.1	-4.9%	-1.5%
COc1cccc2c1-c1c(O)cccc1C2=O	10.6%	.	-0.6%	10.3%
NC1=NC(=O)CC(C(=O)Nc2cccc3ccccc23)S1 (centres undefined)	1.1%	-1.8	6.6%	-0.2%
COc1ccccc1CN1CCN(Cc2cc(OC)c(OC)cc2OC)CC1	32.5%	.	-2.9%	0.4%
Cc1cc(C)c2cc(C#N)c(SCC(=O)Nc3cc(C)on3)nc2c1	-21.1%	.	-1.5%	0.0%
COc1ccc(F)cc1S(=O)(=O)N1CCN(c2ccccn2)CC1	9.2%	.	-4.8%	-1.5%
COc1ccc(C2(C(=O)NCCc3ccccc3)CCCC2)cc1	11.7%	.	10.4%	7.9%
CC(=O)Nc1ccc2nc(NC(=O)C(Cl)(Cl)Cl)sc2c1	-0.8%	5.8	-3.6%	?
CCOC(=O)/C(=N\Nc1cccc(Cl)c1)Sc1nnc(-c2ccc(OC)cc2)n1C	1.8%	-18.2	-2.2%	1.7%
The results go on:
SMILES	Rango dissoc inh	GLA inh pH 4.5	miR-21 FLuc	Rango-impB inh
O=C(O)Cn1ccnc1	9.8%	6.9	-4.0%	0.3%
COC(=O)COc1ccc(S(=O)(=O)Nc2cc(OC)ccc2OC)cc1	.	-1.4	1.3%	.
CCOC(=O)C1(Cc2ccccc2C)CCCN(Cc2cc(OC)c(O)c(OC)c2)C1 (centres undefined)	10.7%	-2.7	-2.5%	-0.4%
Cc1ccc(Cl)c(NC(=O)COC(=O)C2CCC2)c1Cl	7.0%	.	.	3.1%
CCOC(=O)CN1C(=O)C(O)=C(C(C)=O)C1c1ccc(F)cc1 (centres undefined)	38.5%	5.1	-11.0%	5.2%
CCN(c1ccccc1)S(=O)(=O)c1ccc(OCC(=O)N2CCCC2)cc1	11.9%	.	.	-0.2%
CCC(CC)C(=O)Nc1cccc(C(=O)NCCc2ccc(S(N)(=O)=O)cc2)c1	19.2%	-5.1	-1.0%	6.1%
CCn1c(SCC(N)=O)nnc1-c1ccc(OC)c(OC)c1	-5.7%	-2.2	-2.2%	-4.6%
O=C(CN1C(=O)C(=O)N(CCC2=CCCCC2)C1=O)Nc1ccc(F)cc1F	-9.2%	.	.	-1.5%
CCn1nc(NC(=O)C(C)C)c2cc3ccc(C)cc3nc21	-38.2%	.	0.6%	?
C=CCc1cc(Cl)ccc1OCCn1ccnc1	-25.5%	.	-7.9%	-3.6%
COc1ccc(/C=C\c2nc(=O)c3ccccc3o2)cc1	-5.9%	1.3	12.4%	-1.6%
O=C(NCCC1CCCCN1S(=O)(=O)c1ccc(F)cc1)C(=O)NC1CC1 (centres undefined)	-10.5%	.	.	-2.3%
O=C(CSc1nc2ccc(Nc3nc(N4CCOCC4)nc(N4CCOCC4)n3)cc2s1)Nc1ccccc1F	-9.5%	.	-6.3%	-0.2%
CS(=O)(=O)C1=NN2C(=N)/C(=C\c3ccc(OCCOc4ccccc4)cc3)C(=O)N=C2S1	1.3%	.	-25.7%	-1.9%
COc1ccccc1NC(=O)Nc1nnc(Cc2ccc(F)cc2)s1	1.0%	.	0.3%	-2.4%
COc1cc(CNC23CC4CC(CC(C4)C2)C3)ccc1OCc1ccccc1	-3.6%	?	-15.6%	4.6%
CCN(CC)CCN(C(=O)CCS(=O)(=O)c1ccccc1)c1nc2cc(C)cc(C)c2s1	-7.3%	.	4.4%	4.1%
CC1CCCN(CC(O)COCC2COc3ccccc3O2)C1 (centres undefined)	3.8%	9.3	-9.1%	5.2%
CCOC(=O)c1c(C)[nH]c(C(=O)OCC(O)=C(C#N)c2nc3ccccc3[nH]2)c1C	?	.	.	?
CCCCC(=O)Nc1cc(OC)c(NC(=S)NC)cc1OC	-9.2%	2.8	4.6%	0.1%
CCOC(=O)Cn1c(CN2CC(C)OC(C)C2)nc2c1c(=O)n(C)c(=O)n2C (centres undefined)	-3.8%	-9.0	-0.6%	-0.2%
COCCCNC(=O)CCCN1C(=O)c2cccnc2Sc2ccccc21	10.0%	.	2.5%	-0.8%
Cc1ccc(CN2CCN(/N=C/c3ccccc3)CC2)cc1	1.4%	-0.1	-0.4%	1.3%
CC1=NN(C(=O)c2csc(C(C)C)c2)C(O)(C(F)(F)F)C1 (centres undefined)	11.4%	4.2	-14.6%	-2.8%
COc1ccc(CC(=O)NC(CC(=O)O)c2cccc([N+](=O)[O-])c2)cc1 (centres undefined)	-5.6%	6.6	0.2%	-1.5%
COc1cccc(NC(=O)CN(C)C(=O)/C=C/c2cn(-c3ccccc3)nc2-c2cccs2)c1	1.8%	.	.	0.8%
O=C(NCc1ccco1)/C(=C/c1ccc(Br)cc1)NC(=O)c1ccco1	-16.1%	.	-21.9%	-2.0%
